ALR inh – human ALR oxidase inhibition via reduced H2O2; P55789; purified ALR, DTT oxidation, H2O2 HRP-luminol luminescence; inhibition, % (no concentration beside the values); 3.8% of 290,000 active; AID 485317;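 active = mean and each replicate at 75% or more; inconclusive = only one of the two met; inactive = neither met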;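 also: stock transfer was 7.5 nL into about 7.5 µL; 0% = neutral wells and 100% = wells with inactivated enzyme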
Target sequence (P55789 whole entry, looked up): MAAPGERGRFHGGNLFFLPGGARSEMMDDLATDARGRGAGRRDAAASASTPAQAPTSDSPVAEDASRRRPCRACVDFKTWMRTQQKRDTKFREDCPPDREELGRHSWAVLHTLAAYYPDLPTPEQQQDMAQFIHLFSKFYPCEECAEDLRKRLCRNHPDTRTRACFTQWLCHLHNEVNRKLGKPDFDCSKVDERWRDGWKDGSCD
Beta cell apopt – beta cell apoptosis inhibition | protection from apoptosis, % (concentration not given with the values) | 0.8% of 300,000 active | INS-1E cytokine-induced death, ATP luminescence, 48 h; percent of positive-control rescue, neutral wells zero;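 active = all replicates at 75% or more, or half of them and the mean; inconclusive = half reach 75% but not the mean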;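 also: 0% = cytokine-treated negative control wells and 100% = positive control rescue; higher means more ATP so stronger rescue from cytokine killing; wells of about 40 µL received 100 nL stock; the first replicate is given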
Calb FLC – C. albicans growth modulation with fluconazole; C. albicans CaCi-2 (fluconazole-resistant clinical isolate) + fluconazole, Alamar Blue growth, 48 h; growth inhibition, % (test concentration not listed); 0.57% of 300,000 active;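 active = most replicates above 75%; inconclusive = exactly half above 75%; inactive = most below 75%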;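 also: all wells also contain fluconazole at 8 µg/ml as a sub-toxic cotreatment; 0% = median of DMSO wells and 100% = median of geldanamycin control wells; wells of about 8 µL received 7.5 nL stock; the first replicate is given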
Beta2AR agonist – human beta-2 adrenergic receptor agonism by FAP | P07550 | Am2.2-beta2AR cells, FAP receptor internalization, flow cytometry; reference of the scale not given here | 0.43% of 340,000 active | response, % (no concentration beside the values);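 active = response above a set limit, near 3 SD of response in nonfluorescent compounds, cut at about 42% in these data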;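 also: stock transfer was 100 nL into about 11 µL; a reference agonist was the positive control; negative values mostly stem from fluorescent compounds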
Target sequence (P07550 whole entry, looked up): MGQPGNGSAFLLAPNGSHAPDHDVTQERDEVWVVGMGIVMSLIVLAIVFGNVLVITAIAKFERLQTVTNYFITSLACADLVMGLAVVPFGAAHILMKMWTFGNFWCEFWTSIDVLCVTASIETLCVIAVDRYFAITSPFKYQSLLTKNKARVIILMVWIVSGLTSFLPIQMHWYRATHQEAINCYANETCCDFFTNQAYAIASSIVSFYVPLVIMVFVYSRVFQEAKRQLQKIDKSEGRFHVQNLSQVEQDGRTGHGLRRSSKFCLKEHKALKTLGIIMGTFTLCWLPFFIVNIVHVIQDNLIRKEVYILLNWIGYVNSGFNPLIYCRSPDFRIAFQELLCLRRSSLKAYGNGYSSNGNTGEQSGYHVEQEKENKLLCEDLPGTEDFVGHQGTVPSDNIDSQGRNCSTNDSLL
A1 inh – inhibitors of the anti-apoptotic protein A1, read as caspase activation; MEF A1-2A-BIM cells, Caspase-Glo 3/7 luminescence, 3 h; percent of clofoctol response, vehicle zero; caspase activation, % (test concentration not listed); 0.066% of 330,000 active; AID 2462;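 active = over half of replicate activation scores above 10%, or exactly half above 10 with the replicate mean above 10; inconclusive = replicate mean below 10 yet half the replicates above 10; inactive = over half of replicates below 10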;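 also: wells of about 30 µL received 50 nL stock; many hits fall short of the cut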
T cruzi inh – blocks replication of Trypanosoma cruzi | T. cruzi beta-gal in NIH3T3, luminescence, 90 h | inhibition, % (test concentration not listed) | 1.4% of 300,000 active;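 active = mean inhibition across valid replicates above about 55%, limit read from the data; inconclusive = mean below that limit but half or more replicates reach it; inactive = mean below it, under half of replicates reach it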;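 also: signal also drops with host cell toxicity which is not excluded here; 0% = plate median of DMSO wells and 100% = zero luminescence signal; higher percent means less beta-gal luminescence so fewer parasites; stock transfer was 50 nL into about 50 µL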
rRNA inh HTS – selective bacterial rRNA inhibition in E. coli; 1.6% of 350,000 active; GFP signal change (wild-type ribosome), % (test concentration not listed); E. coli WT GFP vs humanized-ribosome RFP mutants, fluorescence, 24 h; stronger effect = lower value; DMSO median 0, no signal -100;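 active = significant combined selectivity score with lowered wild-type GFP, culture density cut under 30%, mutant RFP and density less affected; inactive = any of these conditions unmet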; also: one replicate is shown; some compounds called inactive have numbers as strong as hits
LANA-H2A inh – blocks KSHV LANA binding to histone H2A/H2B; cell-free LANA-H2A/H2B peptide, fluorescence polarization; 0.6% of 320,000 active; inhibition, % (test concentration not listed); in the data active = inhibition mostly above about 10%, no sharp cut-off; inactive = mostly below about 6.7%;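 also: stock transfer was 7.5 nL into about 10 µL; 0% = median of vehicle wells and 100% = median of positive control wells; one replicate is shown; the record names a cut of 25% in any replicate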
rRNA inh HTS OD600 – recorded beside rRNA inh HTS, whose call it bears; OD600 change, %; measured here: OD600 growth;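 optical density of the mix in the first replicate; 0 = DMSO median and -100 = no signal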
rRNA inh HTS RFP – recorded beside rRNA inh HTS, whose call it bears; RFP signal change, %; measured here: RFP humanized mutant strains;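 first replicate; 0 = DMSO median and -100 = no signal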
Starred values were filed as active, the others as inactive; u = inconclusive; x = no result given.

SMILES	ALR inh	Beta cell apopt	Calb FLC	Beta2AR agonist	A1 inh	T cruzi inh	rRNA inh HTS	rRNA inh HTS OD600	rRNA inh HTS RFP	LANA-H2A inh
O=[N+]([O-])c1ccc(-c2nn(-c3ccccc3)cc2/C=N/n2c(-c3cccs3)n[nH]c2=S)cc1	-3.8	55.9	1.5	-2.2	-0.3	0.7	9.1	6.8	-0.8	2.6
C=CCSc1cc(C)nc2c(-c3ccccc3)c(C)nn12	21.1	7.9	5.0	4.8	-0.9	3.5	-38.0*	4.1*	-9.8*	8.7
COc1ccc(-c2cc(C(=O)NNC(=O)c3csc(N4CCOCC4)n3)c3ccccc3n2)cc1OC	1.2	18.2	-0.6	9.6	0.1	7.3	-55.8	-77.4	-19.1	-1.5
C/C(=N\NC(=O)c1cccc(S(=O)(=O)Nc2cccc(Cl)c2)c1)c1cccs1	-7.8	-3.9	-12.1	-0.5	-7.8	16.5	-47.0	-68.2	-10.0	-0.6
O=C(CCCC(=O)N(CC(=O)NC1CCCC1)Cc1ccc(F)cc1)Nc1ccccn1	-4.1	-0.6	x	-2.1	0.5	6.6	x	x	x	6.8
CC(C)(C)C1CCC2(CC1)NC(=S)N(c1ccccc1)N2 (stereo not drawn)	-4.9	-24.2	-14.0	-5.5	0.2	-22.7	x	x	x	-0.6
Cc1cc(=O)n(-c2ccccc2Cl)[nH]1	-39.3	-8.4	-17.5	6.5	-1.2	6.8	16.0	4.2	-2.3	-1.4
O=C(NCc1ccco1)C(=O)c1cn(CC(=O)N2CCCC2)c2ccccc12	-17.0	-11.2	7.8	1.8	0.1	x	17.9	17.9	1.0	0.4
Cc1cccc(NC(=O)c2nc[nH]c2C(=O)N[C@@H](C)C(=O)OC(C)(C)C)c1	-10.2	5.7	7.1	3.8	0.6	-4.7	-1.3	7.7	-0.2	-1.6
O=c1cc(-c2ccccc2Cl)oc2c(NS(=O)(=O)c3cccc4nsnc34)ccc(O)c12	15.2	-0.3	62.1	4.3	0.1	6.1	-24.7	-34.8	-15.3	0.8
Cc1ccnc(SC2CC(=O)N(c3ccc(C(C)C)cc3)C2=O)n1 (stereo not drawn)	30.4	0.8	-12.2	-8.8	0.1	-9.5	-7.1	-13.8	2.7	-3.4
Cc1ccc(C(CC(=O)c2ccc(Cl)cc2)C(=O)O)cc1 (stereo not drawn)	11.4	1.8	7.2	-0.1	0.7	-0.9	-14.3	-26.8	-14.0	-4.2
Cc1ccnc2c(N3C(=O)C4C5C=CC(C5)C4(C)C3=O)cccc12 (stereo not drawn)	-8.9	-1.9	-1.0	-1.2	-0.1	6.1	5.7	4.0	2.9	-3.1
CC(C)N(Cc1ccccc1)S(=O)(=O)c1ccc(F)cc1	-25.0	47.0	-4.6	2.7	0.2	16.0	-5.9	0.8	-0.7	-1.6
Cc1cc(C)cc(OCC(=O)OC/C(O)=C(\C#N)c2nc3ccccc3[nH]2)c1	-3.7	10.9	2.6	8.2	0.5	-4.4	x	x	x	-4.2
N#C/C(=C/c1ccc(N2CCOCC2)c([N+](=O)[O-])c1)C(N)=O	28.5	-6.2	-7.3	1.2	0.0	-9.8	5.1	8.7	1.0	0.7
COc1ccc(N2CCN(Cc3nc(N)nc(Nc4ccccc4OC)n3)CC2)cc1	45.4	x	-29.3	-0.3	0.7	-8.2	x	x	x	-2.0
CCOc1ccc(NC(=S)NCc2cccnc2)cc1	-10.5	-1.6	3.8	5.0	0.3	-9.6	-20.0*	12.9*	1.6*	-3.6
COc1ccccc1NC(=O)N1CCN(Cc2ccc3c(c2)OCO3)CC1	-3.2	-1.1	-6.7	-5.4	0.9	-0.7	7.0	7.0	1.5	0.3
CC(=O)c1c(N2CCN(c3ccccc3)CC2)nc(=S)n(-c2ccccc2)c1C	27.3	4.6	-4.5	13.8	0.0	12.8	x	x	x	0.6
Cc1cc2ncn(CC3CC3(Cl)Cl)c2cc1C (stereo not drawn)	-0.6	-12.1	-9.5	0.1	-0.9	10.8	-28.6	-36.6	-8.3	-2.5
CN(c1ccc(C(=O)N2CCCCCC2)cc1)S(=O)(=O)c1ccc(Cl)cc1	-5.9	17.6	0.5	-6.7	-0.1	12.2	-6.6	-11.6	1.4	-0.3
O=C(Nc1ccc(Cl)cc1Cl)C1=Cc2ccccc2OC1	5.3	1.6	-3.9	-1.3	-0.6	-19.4	x	x	x	-1.2
CC(NC(=O)OC(C)(C)C)C(=O)N1CCCC1C(=O)NC(Cc1ccccc1)C(N)=O (stereo not drawn)	-0.5	-9.3	-18.3	15.6	0.7	-1.9	x	x	x	4.6
CCN(c1ccc(OC)cc1)S(=O)(=O)c1ccc(-c2ccc(=O)[nH]n2)o1	-11.3	-1.6	-12.4	1.3	-0.3	3.4	4.6	11.6	-0.7	-4.1
COc1ccc(S(=O)(=O)NCC2CCCN(CC(C)(C)C)C2)cc1 (stereo not drawn)	-4.3	-3.6	-12.7	4.0	-0.2	17.6	7.0	7.6	-0.4	-1.0
CC1CCCC(C)N1C(=O)COC(=O)Cc1ccc(F)cc1 (stereo not drawn)	-4.9	-5.1	-7.8	-5.0	u	1.2	8.4	15.9	0.6	-1.8
O=C(O)CN1C(=O)c2cccc3c(Br)ccc1c23	-4.7	-3.4	-0.6	-3.6	-1.0	-15.5	7.4	-2.1	-1.5	1.3

Gathered by group, the compounds so far with sulfur
SMILES	ALR inh	Beta cell apopt	Calb FLC	Beta2AR agonist	A1 inh	T cruzi inh	rRNA inh HTS	rRNA inh HTS OD600	rRNA inh HTS RFP	LANA-H2A inh
O=[N+]([O-])c1ccc(-c2nn(-c3ccccc3)cc2/C=N/n2c(-c3cccs3)n[nH]c2=S)cc1	-3.8	55.9	1.5	-2.2	-0.3	0.7	9.1	6.8	-0.8	2.6
C=CCSc1cc(C)nc2c(-c3ccccc3)c(C)nn12	21.1	7.9	5.0	4.8	-0.9	3.5	-38.0*	4.1*	-9.8*	8.7
COc1ccc(-c2cc(C(=O)NNC(=O)c3csc(N4CCOCC4)n3)c3ccccc3n2)cc1OC	1.2	18.2	-0.6	9.6	0.1	7.3	-55.8	-77.4	-19.1	-1.5
C/C(=N\NC(=O)c1cccc(S(=O)(=O)Nc2cccc(Cl)c2)c1)c1cccs1	-7.8	-3.9	-12.1	-0.5	-7.8	16.5	-47.0	-68.2	-10.0	-0.6
CC(C)(C)C1CCC2(CC1)NC(=S)N(c1ccccc1)N2 (stereo not drawn)	-4.9	-24.2	-14.0	-5.5	0.2	-22.7	x	x	x	-0.6
O=c1cc(-c2ccccc2Cl)oc2c(NS(=O)(=O)c3cccc4nsnc34)ccc(O)c12	15.2	-0.3	62.1	4.3	0.1	6.1	-24.7	-34.8	-15.3	0.8
Cc1ccnc(SC2CC(=O)N(c3ccc(C(C)C)cc3)C2=O)n1 (stereo not drawn)	30.4	0.8	-12.2	-8.8	0.1	-9.5	-7.1	-13.8	2.7	-3.4
CC(C)N(Cc1ccccc1)S(=O)(=O)c1ccc(F)cc1	-25.0	47.0	-4.6	2.7	0.2	16.0	-5.9	0.8	-0.7	-1.6
CCOc1ccc(NC(=S)NCc2cccnc2)cc1	-10.5	-1.6	3.8	5.0	0.3	-9.6	-20.0*	12.9*	1.6*	-3.6
CC(=O)c1c(N2CCN(c3ccccc3)CC2)nc(=S)n(-c2ccccc2)c1C	27.3	4.6	-4.5	13.8	0.0	12.8	x	x	x	0.6
CN(c1ccc(C(=O)N2CCCCCC2)cc1)S(=O)(=O)c1ccc(Cl)cc1	-5.9	17.6	0.5	-6.7	-0.1	12.2	-6.6	-11.6	1.4	-0.3
CCN(c1ccc(OC)cc1)S(=O)(=O)c1ccc(-c2ccc(=O)[nH]n2)o1	-11.3	-1.6	-12.4	1.3	-0.3	3.4	4.6	11.6	-0.7	-4.1
COc1ccc(S(=O)(=O)NCC2CCCN(CC(C)(C)C)C2)cc1 (stereo not drawn)	-4.3	-3.6	-12.7	4.0	-0.2	17.6	7.0	7.6	-0.4	-1.0

The list is partial; rates above refer to the full screens.
